Assay outcomes as filed in PubChem.
AF4-AF9 inh: inhibitors of human MLL-AF4/AF9 interaction. inhibition, % at 10 µM. AID 651704. AlphaScreen, biotin-AF4 peptide binding to FLAG-AF9. P42568. actives 0.47% (n = 350,000);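 active = every replicate reaching a set inhibition limit, whatever the replicate mean, cut at about 25% in these data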;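 also: 0% = plate neutral control median and 100% = total signal loss; the record names both 10 and 1 µM as test concentration; the first replicate is given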
Target sequence (P42568 whole entry, looked up): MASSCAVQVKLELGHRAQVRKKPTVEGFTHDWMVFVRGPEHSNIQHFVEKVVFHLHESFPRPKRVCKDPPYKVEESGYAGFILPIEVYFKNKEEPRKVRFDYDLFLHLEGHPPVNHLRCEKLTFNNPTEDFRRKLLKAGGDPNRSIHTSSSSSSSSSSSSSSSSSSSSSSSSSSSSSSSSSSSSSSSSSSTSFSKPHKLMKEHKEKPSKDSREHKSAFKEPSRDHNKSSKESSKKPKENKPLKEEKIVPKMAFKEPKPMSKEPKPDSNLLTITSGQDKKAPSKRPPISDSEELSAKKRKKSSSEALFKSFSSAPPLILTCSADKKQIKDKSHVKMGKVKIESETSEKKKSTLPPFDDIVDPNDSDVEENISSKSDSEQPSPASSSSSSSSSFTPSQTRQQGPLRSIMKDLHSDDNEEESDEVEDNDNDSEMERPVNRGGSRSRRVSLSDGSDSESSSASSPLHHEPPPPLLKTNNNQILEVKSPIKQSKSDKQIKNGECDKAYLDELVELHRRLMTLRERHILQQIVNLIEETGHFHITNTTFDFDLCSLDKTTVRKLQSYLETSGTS
* hit, by the source's call. This is a subset; the hit share may differ from the screen's.

canonical_smiles	AF4-AF9 inh
C[C@@H]1CN([C@H](C)CO)C(=O)c2cccc(NC(=O)c3cnccn3)c2O[C@@H]1CN(C)Cc1ccc2c(c1)OCO2	-2.0
Cc1noc(C)c1NC(=O)Nc1ccc2c(c1)C(=O)N([C@@H](C)CO)C[C@@H](C)[C@H](CN(C)C)OCCCC[C@@H](C)O2	-0.8
O=C(NCO)c1cccnc1	-1.0
CNC[C@@H]1Oc2ccc(NC(=O)CCC(F)(F)F)cc2CC(=O)N([C@H](C)CO)C[C@H]1C	-12
COc1ccc(S(=O)(=O)N(C)C[C@@H]2OCCCC[C@H](C)Oc3ccc(NC(=O)Nc4c(C)noc4C)cc3C(=O)N([C@H](C)CO)C[C@H]2C)cc1	-2.0
O=C(C[C@H]1CC[C@H]2[C@@H](COC[C@@H](O)CN2C(=O)c2ccc3c(c2)OCO3)O1)NC1Cc2ccccc2C1	-0.9
CN1C(=O)c2cc(NC(=O)C3CCOCC3)ccc2OC[C@H]2O[C@H](CC(=O)NCC3CC3)CC[C@H]21	-1.4
C[C@H]1CN([C@@H](C)CO)C(=O)c2cc(C#CC3(O)CCCC3)cnc2O[C@H]1CN(C)C(=O)Nc1ccc2c(c1)OCO2	-4.3
C/C=C/c1ccc2c(c1)O[C@@H](CN(C)C(C)=O)[C@H](C)CN([C@H](C)CO)S2(=O)=O	-3.2
CO[C@@H]1CN(C)C(=O)c2cc(NC(=O)C3CCC3)ccc2OC[C@@H](C)N(Cc2nccs2)C[C@H]1C	0.2
C[C@H]1CN([C@@H](C)CO)C(=O)c2cccc(NC(=O)C3CCOCC3)c2O[C@@H]1CN(C)S(C)(=O)=O	-3.6
COCC(=O)N1CCCCN2[C@@H](CO)[C@H](c3ccc(-c4ccc(C)cc4)cc3)[C@@H]2C1	-2.1
COc1ccc(S(=O)(=O)N(C)C[C@@H]2Oc3ncc(-c4ccncc4)cc3C(=O)N([C@@H](C)CO)C[C@H]2C)cc1	0.5
C[C@@H]1CCCCO[C@@H](CN(C)S(=O)(=O)c2ccc(Cl)cc2)[C@@H](C)CN([C@H](C)CO)C(=O)c2cc(NC(=O)CCCCCC(=O)Nc3ccccc3N)ccc2O1	1.5
COC(=O)C[C@H]1CC[C@@H](NS(=O)(=O)c2ccccc2F)[C@H](CO)O1	0.8
Cc1ccc(S(=O)(=O)Nc2ccc3c(c2)C(=O)N([C@H](C)CO)C[C@H](C)[C@H](CN(C)Cc2ccc(C(=O)Nc4ccccc4N)cc2)O3)cc1	-1.6
C[C@H]1CN([C@@H](C)CO)C(=O)Cc2cc(NC(=O)Nc3ccc(C(F)(F)F)cc3)ccc2O[C@H]1CN(C)S(C)(=O)=O	0.4
CN1C(=O)c2cc(NC(=O)Nc3ccccc3)ccc2OC[C@@H]2O[C@H](CC(=O)O)CC[C@@H]21	-1.1
Cc1ccccc1-c1ccc([C@H]2[C@@H](CO)N3C(=O)CN(C(=O)Nc4ccc(F)cc4)C[C@@H]23)cc1	1.7
CN(C)CC(=O)N1[C@@H]2Cn3c(ccc(-c4ccccc4)c3=O)[C@H]1[C@@H](C(=O)N1CCN(C)CC1)[C@@H]2CO	-1.5
O=C(CC1CC1)N1CC[C@H]2[C@H](CO)Nc3ccc(-c4ccccc4)cc3[C@H]21	0.6
CNc1cncc(-c2cccc(C(=O)NCCN(C)C)c2)n1	-1.5
O=C(C[C@H]1CC[C@@H]2[C@H](COC[C@@H](O)CN2S(=O)(=O)c2ccc(F)cc2)O1)NCc1ccc(Cl)c(Cl)c1	4.1
C=C(C)C(O)COc1c2occc2c(OC)c2ccc(=O)oc12 (stereo not given)	-2.5
CCCNC(=O)[C@H]1[C@H](CO)[C@H]2Cn3c(ccc(-c4ccncc4)c3=O)[C@@H]1N2Cc1ccccc1F	-7.1
C[C@H](O)C#Cc1ccc2c(c1)O[C@H](CN(C)Cc1ccc(-c3ccccc3)cc1)[C@@H](C)CN([C@H](C)CO)S2(=O)=O	0.1
O=C(C[C@H]1CC[C@H]2[C@@H](COC[C@@H](O)CN2CC2CCCCC2)O1)NCC1CC1	-4.7
C[C@H]1CN([C@@H](C)CO)C(=O)c2cc(NC(=O)Cn3cnnn3)ccc2O[C@H]1CN(C)S(=O)(=O)c1ccc(F)cc1	-1.0
COCC(=O)Nc1ccc2c(c1)C(=O)N(C)C[C@@H](OC)[C@H](C)CN(Cc1cc(F)ccc1F)[C@@H](C)CO2	2.7
CN(C)c1ccc2c(c1)[C@@H]1C[C@H](CC(=O)NCc3cccc(F)c3)O[C@H](CO)[C@@H]1O2	2.5
C[C@H](O)C#Cc1ccc([C@@H]2[C@@H](CO)N3CCCCN(C(=O)c4ccc5c(c4)OCO5)C[C@H]23)cc1	-4.8
Cc1ccc(S(=O)(=O)Nc2ccc3c(c2)C(=O)N([C@@H](C)CO)C[C@@H](C)[C@@H](CN(C)C(=O)Nc2ccc(F)cc2)OCCCC[C@H](C)O3)cc1	-3.8
CC1(C(=O)Nc2ccc3[nH]ncc3c2)CCN1C(=O)CC(c1ccccc1)c1ccccc1 (stereo not given)	4.1
CO[C@@H]1CN(C)C(=O)c2ccc(NC(=O)Nc3cccc(F)c3)cc2OC[C@@H](C)N(C(=O)Nc2cccc(F)c2)C[C@H]1C	1.7
CO[C@H]1CN(C)C(=O)c2cc(NC(=O)C3CCCC3)ccc2OC[C@@H](C)N(C(=O)CC2CC2)C[C@@H]1C	3.3
O=C(C1CCCC1)N1C[C@H]2[C@@H](c3ccccc31)[C@H](CO)N2C(=O)c1ccccc1F	-1.2
C[C@H]1CN([C@@H](C)CO)C(=O)CCCn2nncc2CO[C@H]1CN(C)Cc1ccc2c(c1)OCCO2	-0.1
O=C(CN1CCOCC1)N1CCCCN2[C@@H](CO)[C@H](c3ccc(-c4ccccc4F)cc3)[C@@H]2C1	-0.1
CC(=O)c1ccc(NC(=O)CN2C(=O)/C(=C/C(C)=C/c3ccccc3)SC2=S)cc1	-4.3
Cc1ccc(S(=O)(=O)N2[C@H](c3ccccc3)CC(=O)[C@@H]3CN(S(=O)(=O)c4ccccc4C)[C@H](c4ccccc4)C[C@@H]32)cc1	-0.3

Individual results from above.
`O=C(C1CCCC1)N1C[C@H]2[C@@H](c3ccccc31)[C@H](CO)N2C(=O)c1ccccc1F` | AF4-AF9 inh = -1.2
`COc1ccc(S(=O)(=O)N(C)C[C@@H]2Oc3ncc(-c4ccncc4)cc3C(=O)N([C@@H](C)CO)C[C@H]2C)cc1` | AF4-AF9 inh = 0.5

The listing continues.
canonical_smiles	AF4-AF9 inh
C[C@@H]1CCCCO[C@@H](CN(C)S(=O)(=O)c2cn(C)cn2)[C@@H](C)CN([C@@H](C)CO)C(=O)c2cc(NS(C)(=O)=O)ccc2O1	-0.2
COc1ccc(NC(=O)Nc2ccc3c(c2)C(=O)N([C@H](C)CO)C[C@H](C)[C@@H](CN(C)S(=O)(=O)c2ccc(F)cc2)OCCCC[C@@H](C)O3)cc1	-0.2
Cc1noc(C)c1NC(=O)Nc1ccc2c(c1)C(=O)N([C@@H](C)CO)C[C@H](C)[C@@H](CN(C)S(=O)(=O)c1ccc(Cl)cc1)O2	-2.0
CCCNC(=O)N(C)C[C@H]1Oc2ncc(C#CCC(C)C)cc2C(=O)N([C@H](C)CO)C[C@@H]1C	-5.4
COc1cccc(S(=O)(=O)N(C)C[C@@H]2Oc3ncc(-c4cccc(F)c4)cc3C(=O)N([C@H](C)CO)C[C@@H]2C)c1	1.6
Cc1cc(OCc2cn(CC(=O)c3ccc(O)cc3)nn2)ccc1[N+](=O)[O-]	-2.9
CCOC(=O)C1=CCC(c2cc3ccccc3[nH]2)NC1 (stereo not given)	2.8
COc1ccccc1-c1cnc(C(O)c2ccc(CN3CCCC3)cc2)[nH]1 (stereo not given)	9.0
Cc1noc(C)c1NC(=O)N(C)C[C@H]1OCCCC[C@H](C)Oc2ccc(N(C)C)cc2C(=O)N([C@H](C)CO)C[C@@H]1C	-2.7
COc1ccc(NC(=O)N2CC3(C2)CN(C(=O)CN2CCOCC2)[C@@H](CO)c2[nH]c4cc(OC)ccc4c23)cc1	0.1
C[C@@H]1CCCCO[C@@H](CN(C)Cc2ccc(C(F)(F)F)cc2)[C@@H](C)CN([C@@H](C)CO)C(=O)c2cc(NS(=O)(=O)c3cn(C)cn3)ccc2O1	0.1
CCCN1[C@@H]2Cn3c(ccc(C4=CCCC4)c3=O)[C@H]1[C@@H](C(=O)N(C)C)[C@@H]2CO	3.9
N#C[C@H]1[C@H](c2ccccc2)[C@H](CO)N1C(=O)c1ccccc1F	-1.7
C[C@H]1CN([C@@H](C)CO)S(=O)(=O)c2ccc(C3=CCCCC3)cc2O[C@@H]1CN(C)C(=O)Cc1ccccc1	5.8
COCc1cccc(-c2csc(C(N)c3ccc(F)c(F)c3)n2)c1 (stereo not given)	-5.6
CCCCn1nnnc1C1(C)CCC(=O)N1CC1CCCCC1 (stereo not given)	0.6
CN1C(=O)c2cc(NC(=O)Nc3ccc(Cl)cc3)ccc2OC[C@@H]2O[C@@H](CC(=O)O)CC[C@@H]21	-2.4
COCCNC(=O)[C@H]1[C@H](CO)[C@H]2Cn3c(ccc(-c4ccccc4)c3=O)[C@@H]1N2C(=O)NC(C)C	0.1
O=C(C[C@H]1C=C[C@H](NC(=O)C2CC2)[C@H](CO)O1)NCCCN1CCOCC1	-12
COCC#Cc1ccc2c(c1)O[C@H](CN(C)Cc1ccncc1)[C@@H](C)CN([C@H](C)CO)S2(=O)=O	-7.5
Cc1ccc(S(=O)(=O)NCC[C@@H]2CC[C@@H](NC(=O)c3cccnc3)[C@@H](CO)O2)cc1	-1.1
CCCN1C[C@H](C)[C@H](OC)CN(C)C(=O)c2ccc(NC(=O)c3cccc(F)c3)cc2OC[C@H]1C	39*
C[C@@H]1CN([C@H](C)CO)C(=O)c2cc(NS(=O)(=O)c3ccc(Cl)cc3)ccc2O[C@@H](C)CCCCO[C@@H]1CN(C)Cc1ccncc1	1.7
CN1C(=O)c2cc(NC(=O)C3CCCC3)ccc2OC[C@@H]2O[C@H](CC(=O)NCC(F)(F)F)CC[C@@H]21	-1.3
COCC(=O)N1C[C@H](C)[C@H](OC)CN(C)C(=O)c2cc(NC(=O)c3ccc(F)cc3)ccc2OC[C@@H]1C	0.7
Cc1c(C(=O)/C=C/c2ccccc2F)c2cc(O)ccc2n1C	-0.1
C[C@H](CO)N1C[C@H](C)[C@H](CN(C)S(=O)(=O)c2ccccc2)Oc2ccc(NC(=O)C3CC3)cc2CC1=O	-0.8
CNC[C@@H]1OCCCC[C@H](C)Oc2ccc(NS(=O)(=O)c3cccs3)cc2C(=O)N([C@H](C)CO)C[C@@H]1C	-7.3
COc1ccccc1-c1cnc2c(c1)C(=O)N([C@@H](C)CO)C[C@H](C)[C@H](CN(C)Cc1cccc(F)c1)O2	2.6
O=C(C[C@H]1C[C@@H]2c3cc(NC(=O)NC4CCCC4)ccc3O[C@@H]2[C@H](CO)O1)NCc1ccc(Cl)cc1	-1.1

Quoted at random: 6 records from the list
canonical_smiles	AF4-AF9 inh
CN1C(=O)c2cc(NC(=O)C3CCCC3)ccc2OC[C@@H]2O[C@H](CC(=O)NCC(F)(F)F)CC[C@@H]21	-1.3
O=C(C[C@H]1C[C@@H]2c3cc(NC(=O)NC4CCCC4)ccc3O[C@@H]2[C@H](CO)O1)NCc1ccc(Cl)cc1	-1.1
CCCN1C[C@H](C)[C@H](OC)CN(C)C(=O)c2ccc(NC(=O)c3cccc(F)c3)cc2OC[C@H]1C	39*
Cc1c(C(=O)/C=C/c2ccccc2F)c2cc(O)ccc2n1C	-0.1
COc1ccccc1-c1cnc2c(c1)C(=O)N([C@@H](C)CO)C[C@H](C)[C@H](CN(C)Cc1cccc(F)c1)O2	2.6
CNC[C@@H]1OCCCC[C@H](C)Oc2ccc(NS(=O)(=O)c3cccs3)cc2C(=O)N([C@H](C)CO)C[C@@H]1C	-7.3

The listing continues:
canonical_smiles	AF4-AF9 inh
Cc1noc(C)c1NC(=O)Nc1ccc2c(c1)C(=O)N([C@@H](C)CO)C[C@H](C)[C@H](CN(C)Cc1ccncc1)OCCCC[C@@H](C)O2	0.1
Cn1cnc(S(=O)(=O)N2CCCCN3[C@H](CO)[C@@H](c4ccc(C5=CCCC5)cc4)[C@H]3C2)c1	-4.0
CCCC#Cc1ccc2c(c1)O[C@H](CN(C)C(=O)Nc1ccccc1F)[C@@H](C)CN([C@@H](C)CO)S2(=O)=O	2.0
COc1ccccc1C(=O)N1C[C@@H]2[C@H](c3ccccc31)[C@@H](CO)N2C(=O)Cc1ccccc1	-0.9
C[C@H](CO)N1C[C@H](C)[C@H](CN(C)S(=O)(=O)c2ccccc2)Oc2ccc(NC(=O)CCN3CCOCC3)cc2C1=O	-0.8
CCCN1[C@@H]2c3ccc(-c4cccc(F)c4)c(=O)n3C[C@H]1[C@H](CO)[C@H]2C(=O)N(C)C	-11
O=C(C[C@@H]1CC[C@@H]2[C@H](COC[C@@H](O)CN2S(=O)(=O)c2ccc(F)cc2)O1)NCCN1CCCCC1	0.6
O=C(C[C@H]1C=C[C@@H](NC(=O)Nc2ccccc2F)[C@H](CO)O1)NCc1ccc(Cl)cc1	-0.1
CS(=O)(=O)Nc1ccc2c(c1)[C@H]1C[C@H](CC(=O)N3CCOCC3)O[C@H](CO)[C@H]1O2	-13
Cn1cnc(S(=O)(=O)N2CCCCN3[C@H](C2)[C@H](c2ccc(C4=CCCC4)cc2)[C@@H]3CO)c1	-5.7
O=C(Nc1ccccc1F)N1CC(=O)N2[C@H](CO)[C@@H](c3ccc(C#CC4CC4)cc3)[C@H]2C1	0.4
COc1ccc(S(=O)(=O)Nc2ccc3c(c2)C(=O)N([C@H](C)CO)C[C@@H](C)[C@H](CN(C)C(=O)Cc2ccccc2)OCCCC[C@H](C)O3)cc1	-1.2
O=C(c1ccccc1)N1CC(=O)N2[C@H](CO)[C@@H](c3ccc(C#CCC4CCCC4)cc3)[C@@H]2C1	1.8
C[C@@H]1CN([C@@H](C)CO)S(=O)(=O)c2ccc(C#CC3CCCC3)cc2O[C@@H]1CN(C)Cc1cccnc1	5.8
